# YopH PTP inh: YopH (Yersinia) phosphatase inhibition | inhibition, %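 (about 10 µM by stock and volumes)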 | 140,000 compounds, 0.16% hits | fluorescence Ex485/Em525 | AID 898;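 active = inhibition of 50% or more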;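 also: controls were vehicle for no effect and minimum signal wells for full effect; inactives centre near -20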
# Mtb H37Rv: M. tuberculosis H37Rv growth inhibitors, H37Rv strain (AID 1626). M. tuberculosis H37Rv growth inhibition; higher % means a stronger effect. inhibition, % at 10 µM, or IC50 in µM where a hit was titrated. 220,000 compounds, 0.95% hits;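 active = confirmed in a dose series; inconclusive = inhibition above 80% but not taken into the dose series; inactive = below 80% or under 30% at every dose of the series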;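 also: bacteria incubated seven days before Alamar blue readout; 0% = bacteria only wells and 100% = bacteria with antibiotic wells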
# Mtb betalactam: beta-lactam sensitization of Mtb H37Rv | M. tuberculosis H37Rv growth with meropenem, percent inhibition; hits of this screen are not shown here | inhibition, % at 25 µM | 330,000 compounds, 0.27% hits;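 active = about 74% or more and at least 40 points above the plate without the antibiotic, then above 30% in a dose series; inconclusive = first-round hits that could not be retested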;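 also: growth measured after seven days incubation then overnight dye step; 0% = bacteria only wells and 100% = bacteria with antibiotic; twin plates without the antibiotic show which effects depend on it; some results filed as inactive read as strong as hits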
# Arbovirus inh: antivirals against arbovirus infection. arbovirus infection cell-based antiviral screen. inhibition, % at 10 µM. 200,000 compounds, 0.37% hits;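 active = inhibition from about 30%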;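 also: bluetongue infection of BSR cells; cell survival read as ATP light after 72 h; 0% = infected wells without compound and 100% = uninfected wells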
# RecA intein inh: Mtb RecA intein splicing inhibition; 290,000 compounds, 0.75% hits; cell-free RecA intein splicing, fluorescence; AID 2221; P9WHJ3; inhibition, %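 (about 9 µM by stock and volumes)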; in the data active = inhibition above about 30%; inconclusive = no clear call, values can overlap the other calls;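 also: 0% = vehicle wells and 100% = reference inhibitor control wells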
# Target sequence (P9WHJ3 whole entry, looked up): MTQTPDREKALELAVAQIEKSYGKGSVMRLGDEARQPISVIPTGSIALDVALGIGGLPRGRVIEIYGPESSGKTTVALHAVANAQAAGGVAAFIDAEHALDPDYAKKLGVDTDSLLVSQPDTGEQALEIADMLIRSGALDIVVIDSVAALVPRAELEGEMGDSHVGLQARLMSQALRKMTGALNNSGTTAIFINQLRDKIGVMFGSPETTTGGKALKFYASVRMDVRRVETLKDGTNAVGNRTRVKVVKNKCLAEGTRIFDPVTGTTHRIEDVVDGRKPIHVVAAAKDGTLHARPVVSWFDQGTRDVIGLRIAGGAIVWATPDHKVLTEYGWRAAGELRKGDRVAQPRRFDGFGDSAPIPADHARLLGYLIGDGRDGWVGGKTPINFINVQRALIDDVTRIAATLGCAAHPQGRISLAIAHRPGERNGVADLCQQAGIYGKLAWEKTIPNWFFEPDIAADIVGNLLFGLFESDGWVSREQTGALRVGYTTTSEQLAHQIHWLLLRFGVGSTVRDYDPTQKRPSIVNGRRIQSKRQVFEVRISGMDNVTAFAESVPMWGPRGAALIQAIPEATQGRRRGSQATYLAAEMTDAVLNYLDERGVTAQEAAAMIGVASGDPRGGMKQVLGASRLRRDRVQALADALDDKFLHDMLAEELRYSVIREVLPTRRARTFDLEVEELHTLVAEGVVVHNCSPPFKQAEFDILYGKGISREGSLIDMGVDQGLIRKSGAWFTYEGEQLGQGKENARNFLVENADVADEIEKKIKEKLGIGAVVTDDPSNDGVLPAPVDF
# Arbovirus inh repeat: further read-out of Arbovirus inh, marked with its call; inhibition, %; measured here: 10K subset replicate screen; many hits read low in the repeat;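 first of two repeat runs on a subset; 0% = infected and 100% = uninfected wells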
# * hit, by the source's call; ? = inconclusive; . = no result given; & = joins results of further samples. Only part of the results is shown; rates above refer to the full screens.
# A first look:
SMILES,YopH PTP inh,Mtb H37Rv,Mtb betalactam,Arbovirus inh,RecA intein inh,others
Cc1cc(C)c2c(c1)NC(=O)C2(O)CC(=O)c1cccs1 (centres undefined),-28,-2%,-6,2,.,
COc1ccc(C(=O)NCc2nnc(SCC(=O)N3CCC(C)CC3)o2)cc1OC,-25,0%,-4,10,-1.6,
CCNC(=S)NNc1nc(N2CCOCC2)nc(N2CCOCC2)n1,.,7%,1,15,0.2,
S=C(c1ccc2c(c1)OCO2)N1CCCCC1,-23,-7%,5,14,-1.9,

# The listing (from the top)
SMILES,YopH PTP inh,Mtb H37Rv,Mtb betalactam,Arbovirus inh,RecA intein inh,others
Cc1cc(C)c2c(c1)NC(=O)C2(O)CC(=O)c1cccs1 (centres undefined),-28,-2%,-6,2,.,
COc1ccc(C(=O)NCc2nnc(SCC(=O)N3CCC(C)CC3)o2)cc1OC,-25,0%,-4,10,-1.6,
CCNC(=S)NNc1nc(N2CCOCC2)nc(N2CCOCC2)n1,.,7%,1,15,0.2,
S=C(c1ccc2c(c1)OCO2)N1CCCCC1,-23,-7%,5,14,-1.9,
Cc1ccc(C(=O)Nc2ccc(SC(F)F)cc2)s1,.,4%,3,9,1.4,
O=C(NCCS(=O)(=O)N1CCN(c2ccc(F)cc2)CC1)C1CC(=O)N(c2ccccc2)C1 (centres undefined),.,.,5,.,-1.8,
CCOC(=O)C1C(=O)N(C(=O)c2cncc(Br)c2)CC1c1ccccc1 (centres undefined),-55,-8%,-4,2,0.2,Arbovirus inh repeat=4
Cc1ccc(NC2=CC(=O)C(=O)c3ccccc32)cc1,16,1.5µM*,99,-36,54*,
O=C(CSCc1c(Cl)cccc1Cl)NCc1cccnc1,-23,-3%,52,8,.,
O=C(NCCc1ccc(Cl)cc1)C1CCCN(c2ncnc3c2nc2n3CCCCC2)C1 (centres undefined),.,.,3,.,0.4,
C=CCOc1ccc(/C=C/C(C)=N\O)cc1,-36,-8%,-11,-10,0.8,Arbovirus inh repeat=-8
Cc1cc(C(=O)Nc2ccccc2C#N)n(-c2ccccc2)n1,7,-3%,?,7,1.3,
COc1ccc(C(=O)Nc2nc3ccccc3[nH]2)cc1S(=O)(=O)N1CCOCC1,.,4%,-2,-8,.,
Clc1ccc(CN(Cc2ccc(Cl)cc2)c2nn[nH]n2)cc1,.,3%,-2,38*,5.8,
O=S(=O)(O)c1nnc2sc3ccccc3n12,-26,-8%,-19,8,-1.4,
COc1ccc(NC(=O)COC(=O)c2ccncc2)c(OC)c1,.,4%,3,5,-1.9,
Cc1nc2ccccc2n1Cc1n[nH]c(=S)n1-c1ccc(Cl)cc1,-30,-9%,-3,1,-1.0,
CCCCC(CC)COC1(c2ccccc2)OC(=O)c2ccccc21 (centres undefined),-1,10%,5,-11,19,
Cc1cc(C)cc(NC(=O)CN2C(=O)c3ccccc3C2=O)c1,.,.,-13,.,1.5,
Cc1ccccc1-n1c(SCC(=O)NCC2CCCO2)nc2c([nH]c3ccccc32)c1=O (centres undefined),.,.,6,.,1.1,

# Random excerpt: 3 compounds from above
SMILES,YopH PTP inh,Mtb H37Rv,Mtb betalactam,Arbovirus inh,RecA intein inh,others
O=C(NCCc1ccc(Cl)cc1)C1CCCN(c2ncnc3c2nc2n3CCCCC2)C1 (centres undefined),.,.,3,.,0.4,
Cc1ccccc1-n1c(SCC(=O)NCC2CCCO2)nc2c([nH]c3ccccc32)c1=O (centres undefined),.,.,6,.,1.1,
COc1ccc(C(=O)Nc2nc3ccccc3[nH]2)cc1S(=O)(=O)N1CCOCC1,.,4%,-2,-8,.,

# New compounds follow
SMILES,YopH PTP inh,Mtb H37Rv,Mtb betalactam,Arbovirus inh,RecA intein inh,others
O=C(N/N=C/c1ccc(F)cc1)c1ccc(OCc2ccccc2)cc1,.,-11%,13,.,-1.0,
Cc1onc(-c2ccccc2Cl)c1C(=O)Nc1nc2ccc(S(C)(=O)=O)cc2s1,-14,5%,9,-5,-3.8,
COc1cc(/C(C)=N/NC(=O)c2cccc(S(=O)(=O)N3CCCC3)c2)cc(OC)c1OC,.,.,7,.,1.4,
CC1CCN(C2=NC(=O)/C(=C/c3cccc(O)c3)S2)CC1,.,.,-6,.,-2.7,
CCn1c(O)c(C=C2N=c3ccccc3=N2)sc1=S,.,-6%,-3,3,-2.0,
CSC1=NCCN1C(=O)c1ccc2c(c1)OCO2,-32,4%,0,4,-1.1,
CCCC1C(c2ccco2)NC(c2ccco2)CC1(C)O (centres undefined),-2,-13%,-10,6,-2.0,
COc1ccc(-c2nnc(NC(=O)c3ccc(S(=O)(=O)N(C)CC4CCCO4)cc3)o2)c(OC)c1 (centres undefined),.,.,?,.,3.4,
COCCNc1ccc([N+](=O)[O-])cc1C(=O)Nc1cccc(C)n1,.,3%,2,-4,2.1,
C#CCSc1nnc(-c2sc(-c3ccccc3)nc2C)n1C,-36,13%,77,-3,-2.0,
Cc1ccc(NC(=O)CCC(=O)N/N=C/c2ccc([N+](=O)[O-])o2)cc1C,.,46%,97,.,-1.1,
COc1ccc(/C=N/NC(=O)CC#N)cc1Oc1nc(Cl)ncc1F,.,.,5,.,-8.4,
CCC(CC)NC(=O)c1cccc(Br)c1,.,-5%,2,-3,0.9,
CCOc1cccc(=O)c2c(C)n(Cc3ccco3)c(C)c12,-48,-5%,3,0,4.7,Arbovirus inh repeat=11
CCC(SC1=NCCS1)C(=O)Nc1nnc(-c2ccccc2OC)s1 (centres undefined),-39,6%,11,2,20,
CCOC(=O)c1c(N2CCCCC2)c2ccccc2[nH]c1=O,-2,5%,0,1,0.7,
CCN(CC)c1ccc(C=Nc2cc(C)ccc2C)c(O)c1,-32,4%,7,-8,-1.5,
Cc1cc(C)cc(Oc2ccccc2CO)c1,.,2%,.,-3,.,
O=C(c1nc2ccccn2c1CN1CCCC(c2nc3ccccc3o2)C1)N1CCCC1 (centres undefined),.,0%,-6,1,.,
O=C(C1=C[C@@H](c2ccc(Br)cc2)C[C@@H](OCc2ccc(CO)cc2)O1)N1CCOCC1,.,-5%,-3,2,1.3,
CC(C)OC(=O)Cn1nnc2c(cnn2-c2ccccc2)c1=O,0,-2%,-12,1,0.0,
O=C(O)C1Cc2[nH]cnc2C(c2ccccc2O)N1 (centres undefined),-20,0%,-1,-9,-4.7,
O=C(c1ccc2ccccc2n1)N1CCN(c2ccccc2)CC1,-16,5%,3,-3,-5.6,
C=CCOc1ccc(/C=N/n2cncn2)cc1OC,37,-4%,1,6,3.7,
COc1ccc([N+](=O)[O-])c(OC)c1C(=O)NC(=O)Nc1nc(C)nc(C)n1,.,.,6,.,0.3,
CCOc1ccccc1CNC(c1ccccc1)c1ccccc1,.,.,7,.,11,
C=C(C)C1CC=C(C)/C(=N/NC(=S)Nc2ccccc2)C1 (centres undefined),2,-1%,0,17,-1.9,
S=c1nc2ccccc2c2nc(-c3ccccc3)[nH]n12,-60,.,96,4,0.7,
CN(C)c1ccc(P(=O)(OC2CCCCC2)C(O)c2ccccn2)cc1 (centres undefined),.,3%,3,.,1.2,
Cc1cc(C(=O)Nc2ccc(F)cc2C)cs1,.,.,-13,.,2.3,
CC(=O)Nc1ccc(S(=O)(=O)NCCc2ccccn2)cc1,.,-2%,0,16,0.6,
O=C1CCCC2=C1C(c1ccc(Br)cc1)c1c([nH]c(=S)[nH]c1=O)N2 (centres undefined),-75,1%,4,7,0.2,
OCCCc1nc2ccccc2n1Cc1ccccc1,.,.,2,.,1.2,
CCCCCc1nc2sc3c(c2c(=O)n1N)CCC3,9,0%,19,-2,0.6,
Cc1cc(C)c2cc(C(=O)N3CCN(c4ncccc4C(F)(F)F)CC3)[nH]c2c1,.,.,61,.,-2.2,
CCc1ccccc1N(C(=O)Cn1nnc2ccccc21)C(C(=O)NCCOC)c1ccco1 (centres undefined),-30,5%,-13,3,2.9,
COc1ccc(C(=O)Nc2nncs2)c(OC)c1,-13,3%,?,15,1.1,Arbovirus inh repeat=-4
Cn1c(CNC(=O)c2ccccc2F)nnc1SCc1nc2ccccc2c(=O)[nH]1,.,-5%,-8,1,1.1,
Cc1cc(NC(=O)COn2nnc3ccccc32)no1,-33,-16%,-5,3,-14,
Cc1cc(OCC(=O)NC(C)C)cc(C)c1Br,-23,2%,4,13,-7.3,
O=C(NCC1(N2CCCCC2)CCCCC1)C1CC(=O)N(c2ccc3c(c2)OCCO3)C1 (centres undefined),.,5%,-7,9,1.8,
Cn1c(=O)[nH]c2ncccc21,.,-7%,-10,.,-0.7,
CC1(c2ccc(OC(F)F)cc2)NC(=O)N(CC(=O)Nc2ccc3c(c2)OCO3)C1=O (centres undefined),-1,-6%,-2,5,-0.1,
COc1ccc2[nH]c(=O)c(CNc3cc(C)ccc3C)cc2c1,.,2%,1,.,3.3,
Cc1ccc(NC(=O)/C=C\C(=O)NCC(=O)O)cc1,.,-2%,2,-2,-1.4,
CCCc1[nH]n(-c2nc3ccccc3s2)c(=O)c1C=NCC1CCCO1 (centres undefined),-24,-4%,-11,3,2.5,
CC(=O)c1cccc(OCc2cc(C(=O)NCc3nc(C)c(C)s3)no2)c1,.,.,-1,.,2.4,
CCc1cc(C(=O)N2CCCC(CNC(=O)c3ccc(-c4ccccc4)cc3)C2)no1 (centres undefined),.,?,-1,-5,5.6,
COc1ccccc1-n1ccnc(SCC(=O)NCCc2ccccc2)c1=O,.,.,-9,.,0.5,
Cc1cc(C(=O)CN2C(=O)CCC2=O)c(C)n1Cc1ccccc1,-33,-8%,?,7,-1.9,

# Going on with the list.
SMILES,YopH PTP inh,Mtb H37Rv,Mtb betalactam,Arbovirus inh,RecA intein inh,others
Cc1ccc(Cl)cc1NC(=O)COC(=O)C12CC3CC(CC(C3)C1)C2,-12&5,-8%&-5%,-4&-3,-2&-2,3.5,
Cn1nnnc1SCC(=O)NNC(=O)c1ccc(F)cc1,.,1%,0,0,-1.6,
CC(C)NC(=O)c1cc(-c2cccs2)nc2ccccc12,.,.,-4,.,-2.8,
CC1CCN(C(=O)CSc2nnc(-c3cccnc3)o2)CC1,.,.,3,.,2.2,
CCCc1c(C(=O)N/N=C/C(C)=C/c2ccco2)nnn1-c1nonc1N,.,.,2,.,-11,
Nc1ccc2nc(-c3cccs3)[nH]c2c1,-17,-2%,8,-4,-39,
CCOc1ccc(-c2nonc2NC(=O)c2ccco2)cc1,.,.,-5,.,1.0,
O=C(CN1C(=O)NC2(CCCCC2)C1=O)N1CCN(S(=O)(=O)c2ccc(F)cc2)CC1,.,.,-3,.,0.5,
O=C(O)C1CCCN1C(=O)Oc1ccccc1 (centres undefined),-56,-4%,-9,-3,1.4,
CCn1c2ccccc2c2cc([N+](=O)[O-])ccc21,.,2%,-5,6,0.7,
Cc1ccc(NC(=O)Cn2ncc3ccccc32)c(Cl)c1,.,.,-6,.,1.2,
Cc1cccc(-c2n[nH]c(=S)n2/N=C/C=C/c2ccco2)c1,.,8%,32,.,-0.8,
O=C(CC1(O)C(=O)N(Cc2ccc3c(c2)OCO3)c2ccccc21)c1ccccc1 (centres undefined),-32,-1%,-14,-11,3.7,
COc1ccccc1C(=O)Nc1ccc(Oc2ncnc3sc(-c4ccccc4)cc23)cc1,-38,-13%,6,-2,-0.2,
O=C1c2ccccc2C(=O)N1CCCCSc1nnc2c(Cl)cc(Cl)cn12,6,-5%,-4,12,-0.3,
O=C(Cn1cnc(S(=O)(=O)N2CCCC2)c1)Nc1ccccc1,.,.,1,.,-3.7,
CC(C)(C)C(=O)Nc1c2c(nc3c1CCC3)CCCC2,-18,-6%,6,-8,6.1,
CCN1C(=O)/C(=C\c2ccncc2)SC1=S,.,-3%,-3,.,3.1,
O=C1CN(S(=O)(=O)c2ccc(F)cc2)CC(=O)N1CCc1ccccc1,-29,-11%,.,0,-0.8,
Cc1cccn2c(=O)nc(SCC(=O)N3CCCCC3)nc12,.,.,-14,.,-1.6,
CCOCCCNS(=O)(=O)c1ccc2c(c1)OCCO2,0,-1%,-3,1,2.4,
Cc1ccc(NC2CC(=O)N(c3ccc(C)cc3)C2=O)cc1 (centres undefined),-15,-4%,-9,3,5.2,
CCOCc1c(C(=O)OCC(=O)Nc2ccc(C)c(S(=O)(=O)N(C)C)c2)oc2ccccc12,-18,4%,-3,0,6.7,
COc1ccccc1Cc1noc(-c2cc(Cl)ccc2OC)n1,4,5%,-6,0,-2.1,
COc1cc(SC)ccc1C(=O)OC(C)C(=O)NC1CCCC1 (centres undefined),.,2%,.,-6,.,
CCOC(=O)c1cccc(NC(=O)CN2CCN(c3ccc(OC)cc3)CC2)c1,-5,0%,-5,-2,-0.9,
c1ccc2c(CN3CCOCC3)c[nH]c2c1,.,.,-4,.,-3.6,
O=C(CN(C(=O)c1ccccc1)N1C(=O)CCC1=O)c1cccs1,.,.,-7,.,-2.9,
COc1ccc(C2NCCc3cc(OC)c(OC)cc32)cc1OC (centres undefined),-28,-9%,-7,8,0.1,

# Source: PubChem (several laboratories)
